# Measles inh = inhibitors of measles virus growth in infected cells; infected Vero cells, GFP fluorescence, 64 h; stronger effect = lower value; z-score (concentration not given with the values); 0.1% of 33,000 active;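 active means z-score under -3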;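 further: score is relative to mean and SD of the compound wells of a plate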
# Starred values were filed as active, the others as inactive.
Measles inh | SMILES
-0.22 | COc1ccc(OC)c(NC2OC(=O)c3c2ccc(OC)c3OC)c1 (stereo unspecified)
-1.21 | O=C(c1cccc([N+](=O)[O-])c1)N1CCN(S(=O)(=O)c2ccc3ccccc3c2)CC1
-0.58 | O=C(CC1SC(=Nc2ccccc2)N(c2ccccc2)C1=O)NCc1ccccc1 (stereo unspecified)
-0.99 | COc1ccc(C2CC(C(F)(F)F)n3nc(C(=O)Nc4ccc5c(c4)CCC5)cc3N2)cc1 (stereo unspecified)
-0.74 | O=C(NCc1ccc2c(c1)OCO2)C1CCC(=O)N1Cc1ccc(F)cc1 (stereo unspecified)
-0.1 | CCOc1ccc(-c2cn(-c3cccc(Cl)c3)c(=S)[nH]2)cc1
1.34 | CC(C)c1ccc(OCC(=O)Nc2ccc3c(c2)OCCO3)cc1
-0.5 | O=c1c(C(c2ccc(O)cc2)c2c(O)nc3n(c2=O)CCCS3)c(O)nc2n1CCCS2
-0.52 | O=C(CCn1c(=S)oc2ccccc21)Nc1ccc(S(=O)(=O)NC(=O)c2ccccc2)cc1
0.11 | Cc1ccc(-c2n[nH]c(=O)c3ccccc23)cc1S(=O)(=O)NCCO
-0.04 | COc1cccc(C2CC(c3ccc(OC)c(OC)c3OC)n3nnnc3N2)c1 (stereo unspecified)
-0.32 | O=C1Sc2ccc(S(=O)(=O)Nc3ccc(O)cc3)c3cccc1c23
0.68 | Cc1ccc(C(=O)Nc2sc3c(c2C(=O)N2CCCCCC2)CCC(C)C3)cc1 (stereo unspecified)
-0.1 | O=C1c2ccc(Oc3cccc([N+](=O)[O-])c3)cc2C(=O)N1c1ccc(O)cc1
-0.28 | Nc1c(C(=O)Nc2ccc([N+](=O)[O-])cc2)sc2nc3c(c(-c4ccco4)c12)CCCCC3
2.38 | O=C(Nc1cccc(Cl)c1)c1nn(-c2ccc(Cl)cc2)c(=O)c2ccccc12
0.36 | C=CCN(c1ccccc1C(=O)O)S(=O)(=O)c1ccc(C)cc1
-0.45 | CC(C)NC(=O)COc1cccc(Cl)c1
0.19 | COc1ccc(Cl)cc1-n1c(C=Cc2cccc([N+](=O)[O-])c2)nc2ccccc2c1=O
1.28 | CC(O)c1nc2cc([N+](=O)[O-])ccc2n1CCO (stereo unspecified)
-0.26 | O=C(Cn1ccc2ccccc2c1=O)NCc1cccnc1
1.1 | O=C(NCCc1ccc(Cl)cc1)c1cnc2n(c1=O)CCS2
-0.32 | O=S(=O)(c1ccccc1)c1ccc(Br)cc1
-1.07 | c1csc(COc2ccccc2CNC2CCCCC2)c1
0.57 | O=[N+]([O-])c1ccn(-c2nc(-c3cccs3)cc(C(F)(F)F)n2)n1

# Compounds listed so far containing an NH in an aromatic ring, in the order listed:
Measles inh | SMILES
-0.1 | CCOc1ccc(-c2cn(-c3cccc(Cl)c3)c(=S)[nH]2)cc1
0.11 | Cc1ccc(-c2n[nH]c(=O)c3ccccc23)cc1S(=O)(=O)NCCO

# More structures:
Measles inh | SMILES
-0.44 | CCN(CC)S(=O)(=O)N1CCC(C(=O)NCc2ccccc2Cl)CC1
-0.34 | COc1ccc(C2Nc3ccccc3-c3nnc(SC)nc3O2)cc1O (stereo unspecified)
-0.08 | CCOc1ccc(CC(=O)O)cc1
0.7 | CC(C)c1nnc(NC(=O)c2cc3ccccc3o2)s1
0.18 | COc1ccc(OC)c(C2CC(c3ccc(I)cc3)Nc3ncnn32)c1 (stereo unspecified)
0.52 | Cc1ccc(S(=O)(=O)N2CCN(C(=O)CN3CCOCC3)C2c2ccccc2)cc1 (stereo unspecified)
0.77 | CCOC(=O)C1CCCN(C(=O)C2c3ccccc3Oc3ccccc32)C1 (stereo unspecified)
-0.11 | Cc1ncc(CO)c2cc(C(N)=O)c(=Nc3ccccc3I)oc12
0.48 | COc1cc(C2NC(=O)NC(C)=C2C(=O)OCCC#N)ccc1O (stereo unspecified)
-0.26 | COc1cc(S(=O)(=O)NCC23CC4CC(CC(C4)C2)C3)ccc1Cl
-0.08 | CCSc1ncnc2c1sc1nc3c(cc12)COC(C)(C)C3
-0.47 | COc1ccc(C(=O)Nc2cc(C(=O)N3CC=C(c4ccccc4)CC3)ccc2N2CC3CC(C2)c2cccc(=O)n2C3)cc1 (stereo unspecified)
-1.25 | NC(=O)c1cc2cc(Cl)ccc2oc1=Nc1ccccc1
-0.58 | CCOC(=O)C1=C(C)NC2=C(C(=O)c3ccccc32)C1c1ccc2c(c1)OCO2 (stereo unspecified)
1.32 | CC(C(=O)O)N1C(=O)C2C3c4ccccc4C(c4ccccc43)C2C1=O (stereo unspecified)
0.19 | Cn1cc(Br)cc(Br)c1=O
0.71 | CS(=O)(=O)CCC(C(=O)O)N1C(=O)c2cccc([N+](=O)[O-])c2C1=O (stereo unspecified)
-1.15 | O=C(NCc1ccc(F)cc1)c1ccc2c(c1)N(Cc1cccc(Cl)c1)C(=O)CS2
-2.04 | O=C(c1cccnc1)N1N=C2CCCCC2C1(O)C(F)(F)F (stereo unspecified)
1.42 | COc1ccc(CSc2ccc(C(=O)Nc3ccc(C)cc3C)cc2[N+](=O)[O-])cc1
-0.18 | O=C(Oc1ccccc1)c1ccccc1F
2.46 | CCOC(=O)CNC(=O)c1sc2ncnc(N(CC)CC)c2c1C
2.34 | CCCCCCc1ccc(C(=O)Nc2cc3cc(Cl)ccc3oc2=O)cc1
1.12 | CCOc1ccc(C(=O)Nc2ccc3nc(N(CC)CC)cc(C)c3c2)cc1
0.69 | Cc1ccc(S(=O)(=O)Nc2cc(C)c(O)c(Cl)c2C(C)C)cc1

# Entries listed so far that have a nitro group on carbon (eight):
Measles inh | SMILES
-1.21 | O=C(c1cccc([N+](=O)[O-])c1)N1CCN(S(=O)(=O)c2ccc3ccccc3c2)CC1
-0.1 | O=C1c2ccc(Oc3cccc([N+](=O)[O-])c3)cc2C(=O)N1c1ccc(O)cc1
-0.28 | Nc1c(C(=O)Nc2ccc([N+](=O)[O-])cc2)sc2nc3c(c(-c4ccco4)c12)CCCCC3
0.19 | COc1ccc(Cl)cc1-n1c(C=Cc2cccc([N+](=O)[O-])c2)nc2ccccc2c1=O
1.28 | CC(O)c1nc2cc([N+](=O)[O-])ccc2n1CCO (stereo unspecified)
0.57 | O=[N+]([O-])c1ccn(-c2nc(-c3cccs3)cc(C(F)(F)F)n2)n1
0.71 | CS(=O)(=O)CCC(C(=O)O)N1C(=O)c2cccc([N+](=O)[O-])c2C1=O (stereo unspecified)
1.42 | COc1ccc(CSc2ccc(C(=O)Nc3ccc(C)cc3C)cc2[N+](=O)[O-])cc1

# More compounds:
Measles inh | SMILES
1.46 | Cc1cc(N2C(=O)C3C4C=CC(C4)C3C2=O)ccc1N1C(=O)c2ccc(Cl)cc2C1=O (stereo unspecified)
-0.06 | Cc1ccc(Cl)cc1N(CC(=O)NCC1CCCO1)S(C)(=O)=O (stereo unspecified)
1.21 | CC(C)Nc1ncnc2c1cnn2-c1ccccc1
-0.26 | CCc1ccc(OCc2nc(-c3ccncc3)no2)cc1
1.01 | CC1=C(C)NC(=S)SC1
-0.22 | O=C(NCCC1=CCCCC1)c1ccc(CNC(=O)c2ccc(Br)cc2)cc1
1.24 | O=C(CCCCCn1c(=S)[nH]c2cc3c(cc2c1=O)OCO3)N1CCN(c2ccc(Cl)cc2)CC1
-0.3 | Cc1ccccc1-c1nnc(SCC(=O)N2CCOCC2)o1
-0.25 | COc1ccc(-n2c(C=Cc3cccc(OC)c3OC)nc3ccccc3c2=O)cc1OC
0.62 | Cc1ccc(S(=O)(=O)N(CC(=O)NCc2ccc(Cl)cc2)Cc2ccccc2)cc1
1.15 | O=S(=O)(c1ccccc1)N(c1cccnc1)S(=O)(=O)c1ccccc1
-0.77 | O=C(Nc1ccc(C(=O)O)c(O)c1)c1cccc(Cl)c1
-0.35 | Cn1cc(C(=O)O)c(=O)c2cc(S(=O)(=O)N3CCCC3)ccc21
0.64 | Cc1c(NC(=O)c2ccc([N+](=O)[O-])cc2)c(=O)n(-c2ccccc2)n1C
-0.47 | Cc1sc2ncnc(Oc3ccccc3Br)c2c1C
-0.07 | NC1=NC2(CCCCC2)N=C(Nc2cccc(F)c2)N1
-1.21 | CNC(=O)c1cccc(N2CCCC2=O)c1
0.45 | CCOC(=O)c1sc2nc(C)n(CC(=O)Nc3ccccc3F)c(=O)c2c1C
-0.13 | CCN(CC)CCOC(=O)c1ccc([N+](=O)[O-])cc1
-0.92 | CC1(C)Cc2ccccc2C(CCl)=N1
1.46 | COc1ccc(-n2nc3ccc(NC(=O)c4ccc(-c5cccc([N+](=O)[O-])c5)o4)cc3n2)cc1
-1.23 | CC(C)Cn1cc(C(=O)NC2CC2)c2c3ccccc3n(C)c2c1=O
0.82 | COc1ccc([N+](=O)[O-])cc1NC(=O)CCN1CCN(CC=Cc2ccccc2)CC1
-1.18 | CCOc1ccc(C2N(Cc3ccccc3O)CCN2Cc2ccccc2O)cc1
0.56 | COc1ccc(OCC(=O)Nc2ccc(F)cc2)cc1

# 3 compounds picked at random from the list so far, as already listed:
Measles inh | SMILES
1.21 | CC(C)Nc1ncnc2c1cnn2-c1ccccc1
1.46 | COc1ccc(-n2nc3ccc(NC(=O)c4ccc(-c5cccc([N+](=O)[O-])c5)o4)cc3n2)cc1
-0.22 | O=C(NCCC1=CCCCC1)c1ccc(CNC(=O)c2ccc(Br)cc2)cc1

# Next results follow:
Measles inh | SMILES
-0.37 | COC(=O)c1sc2ccccc2c1NC(=O)c1ccc(C#N)cc1
0.71 | COc1ccc(NC(=O)CSc2nnc3ccccn23)cc1
-1.03 | Cc1ccc(C(=O)Nc2cc(-c3nc4ccccc4s3)ccc2C)cc1
-0.04 | CCOc1ccc(S(=O)(=O)N(C(=O)c2ccccc2)c2ccc3oc4c(c3c2)CCCC4)cc1
2.62 | Cn1c(=N)n(CC(O)c2cccs2)c2ccccc21 (stereo unspecified)
-0.73 | O=C1C2C3C=CC(C3)C2C(=O)N1c1ccc(Nc2ccc(OCc3ccccc3)cc2)c([N+](=O)[O-])c1 (stereo unspecified)
-0.88 | CCOC(=O)c1ccccc1NC(=O)CC1SC(=NC)N(C)C1=O (stereo unspecified)
-0.15 | Cc1sc2ncnc(Nc3ccccc3)c2c1C
-0.31 | Cc1ccc(NC(=O)c2ccccc2F)c(Br)c1
-0.39 | Fc1ccccc1C1CC(c2cccs2)Nc2ncnn21 (stereo unspecified)
-0.28 | C=CCn1c(CNC(C)=O)nc2ccccc21
1.79 | CCCCNC(=O)CCS(=O)(=O)c1cc(Br)cc2c1N(C(C)=O)CC2
-1.13 | CCOC(=O)C1=C(C)NC(C)=C(C(=O)OCC)C1c1cn(-c2ccccc2)nc1-c1cccc([N+](=O)[O-])c1
1.45 | COc1ccc(NC(=O)C(=O)NCCN2CCOCC2)cc1
0.67 | CC(=O)C1=C(O)C(=O)OC1c1ccc(C(C)C)cc1 (stereo unspecified)
0.11 | Cc1cc(N2CCC(C)CC2)nc2ccc(NC(=O)CCC(=O)N3CCCC(C)C3)cc12 (stereo unspecified)
1.83 | Cc1n[nH]c(C)c1Cl
-0.12 | CCC(C)(C)C1CCC2(CC1)NC(=O)c1ccccc1O2 (stereo unspecified)
-0.48 | COc1ccc(-n2c(O)cnc2Nc2nc(C)cc(C)n2)cc1OC
1.52 | Cc1ccc(S(=O)(=O)N2CC3CCC2C3)cc1 (stereo unspecified)
-0.44 | CC(C)c1ccc(-n2c(CCC(=O)O)ccc2-c2ccc(F)cc2)cc1
0.08 | O=C(CSc1nc(-c2ccc(Cl)cc2)cn1-c1ccccc1F)c1cccs1
1.91 | COc1cccc(CNC(=O)CCN2C(=O)C(C)Oc3ccc(C)cc32)c1 (stereo unspecified)
0.53 | COc1ccc2cc3cc(C(=O)NC(C)CCc4ccccc4)sc3nc2c1 (stereo unspecified)
-0.23 | Cc1ccc2c(c1)C(c1ccc(F)cc1)N(C(=O)Cc1cccc3ccccc13)CC(=O)N2 (stereo unspecified)

Measles inh | SMILES
1.15 | O=C(CCNC(=O)c1ccc(Br)o1)NCc1ccccn1
0.24 | CSc1oc(-c2ccco2)nc1S(=O)(=O)c1ccccc1
1.88 | Cc1ccc(C)c(NCc2ccc3c(c2)OCO3)c1
0.3 | COC(=O)CC1SC(=O)NC1=Nc1ccccc1 (stereo unspecified)
0.65 | CCOC(=O)CN1C(c2ccc(O)cc2)Nc2ccc(Br)cc2C1c1ccccc1 (stereo unspecified)
-0.79 | CN(C)c1ccc(-c2nc3cc(NC(=O)c4ccc(C(C)(C)C)cc4)ccc3o2)cc1
-1.33 | Cc1nnc(SCC(=O)OC2CC3CCC2(C)C3(C)C)[nH]c1=O (stereo unspecified)
0.91 | O=C(Nc1cccnc1)c1cc2c(=O)n3ccccc3nc2s1
-1.48 | COc1ccc(-c2[nH]c3ccccc3c2C(C[N+](=O)[O-])c2ccc(F)cc2)cc1OC (stereo unspecified)
2.12 | Cn1c(C(=O)NC2CCCC2)cc2c(=O)[nH]c3ccccc3c21
-0.51 | CCN(CC)c1cc(C)c2cc(NC(=O)c3ccc(Cl)c([N+](=O)[O-])c3)ccc2n1
0.39 | CCCS(=O)(=O)N1CCN(C(=O)c2cccc(F)c2)CC1
0.66 | CCSc1nc2c(c(=O)[nH]1)C(c1ccc(C)cc1)C1=C(CCCC1=O)N2 (stereo unspecified)
0.78 | CCSc1c(C(=O)Nc2cccc(Cl)c2)ccc2c1C(=O)c1ccccc1C2=O
1.4 | O=C(Nc1ccccc1Br)C1CCCN(S(=O)(=O)c2cccc3nsnc23)C1 (stereo unspecified)
-0.61 | CCN(CC)c1ccc(C2CC(=O)C3=C(C2)Nc2ccccc2N(C(C)=O)C3c2ccccc2)cc1 (stereo unspecified)
-0.86 | COc1ccc(C2(CNC(=O)c3ccccc3Cl)CCOCC2)cc1
-0.42 | CCOC(=O)c1cc2c(=O)n3ccccc3nc2n(C2CCCCC2)c1=NC(=O)c1ccc(OC)cc1OC
-0.28 | Clc1ccc(CSc2ncnc3c2oc2ccccc23)cc1
0.65 | Cc1ccc(O)c(C2NC(C(=O)O)Cc3c2[nH]c2ccccc32)c1 (stereo unspecified)
-0.21 | CC(C)Cc1cc(C(=O)O)n[nH]1
0.98 | COCCOC(=O)C1=C(C)NC2=C(C(=O)CC(C)(C)C2)C1c1cc(OC)c(OC)cc1OC (stereo unspecified)
-1.16 | COC(=O)c1ccccc1NC(=O)c1ccc(Br)o1
0 | CCOc1ccc(S(=O)(=O)N=C2C=C(Nc3cccc(C)c3)C(=O)c3ccccc32)cc1
-0.46 | CCOC(=O)c1ccc(NC(=O)c2ccccc2CCc2ccccc2)cc1

# Bioassay records deposited in PubChem BioAssay by Emory University Molecular Libraries Screening Center.

# This is a subset; rates above refer to the full screens.
